# PABP FP inh: PABP poly(A) RNA binding inhibitors, primary screen, biochemical, fluorescence polarization, uHTS; inhibition, % at 35 µM; 1% of 290,000 active;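 active means 50% or more with normal probe brightness, or confirmed in later tests; inconclusive means above 50% with abnormal brightness, or retests that disagree; inactive means below 50% or failed in later tests; about a fifth of its hits are not listed in these tables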;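 further: calls also rest on retests at 20 µM and on dose response follow-up; controls were probe without protein and protein plus probe with vehicle; some compounds called inactive have numbers as strong as hits; many hits fall short of the cut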
# MT1-MMP act inh: blockers of MT1-MMP proenzyme processing, primary screen, HT1080 RFP-PRO-GFP cells, GFP/RFP fluorescence | GFP/RFP ratio change, % at 20 µM | GFP/RFP ratio fluorescence, overnight; percent of plate control window, DMSO zero | 0.061% of 360,000 active;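 active means GFP/RFP ratio change of at least 30% with cell ATP level not reduced by more than half and red fluorescence within 50% of control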; further: strong numbers were not always called active
#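 Assay system – RFP-PRO-GFP reporter HT1080 cells · Compound dosing – single dose of 20 µM compound, 1% DMSO final · Incubation – overnight compound exposure at 37 °C · Measure – GFP/RFP fluorescence ratio · Benchmarks – DMSO wells and RFP-L50D-GFP cells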
# CSC inhib: cancer stem cell viability inhibitors, primary screen, luminescence. cancer stem cell-like cells viability. inhibition, % at 7.5 µM. 1.1% of 300,000 active. AID 2717, 2010;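 active means mean at 75% or more and at least half the replicates too; inconclusive means mean and replicates disagree; tested in HMLE shEcad cells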;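 further: 0% = median of negative and 100% = median of positive control wells; the first replicate is given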
# HIV Env fusion: inhibitors of HIV-1 Env-driven cell-cell fusion, primary screen, HeLa-JRFL effector, CEM21 target cells, luciferase; inhibition, % at 12.3 µM; 1.1% of 360,000 active;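 active means mean replicate inhibition score of at least 50 and every replicate individually at or above 50; inconclusive means only one of the two criteria met; inactive means mean below 50 and not all replicates reaching 50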;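 further: 0% = plate neutral controls and 100% = maraviroc near 300 nM; one replicate is shown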
# Rce1 inhib: yeast Rce1p protease inhibitors, primary screen, biochemical, fluorescence, cell-free homogeneous | calls only | 0.27% of 290,000 active | yeast membranes, quenched prenylated peptide cleavage fluorescence;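 active means fall in fluorescence gain of 50% or more versus controls, with final raw signal at or below 3038400; inconclusive means same 50% fall but final raw signal above 3038400; inactive means fall in fluorescence gain under 50%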;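 further: plate controls were neutral control wells for no effect and wells lacking membranes for full effect; tested at 10 µM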
# Target sequence (Q03530 whole entry, looked up): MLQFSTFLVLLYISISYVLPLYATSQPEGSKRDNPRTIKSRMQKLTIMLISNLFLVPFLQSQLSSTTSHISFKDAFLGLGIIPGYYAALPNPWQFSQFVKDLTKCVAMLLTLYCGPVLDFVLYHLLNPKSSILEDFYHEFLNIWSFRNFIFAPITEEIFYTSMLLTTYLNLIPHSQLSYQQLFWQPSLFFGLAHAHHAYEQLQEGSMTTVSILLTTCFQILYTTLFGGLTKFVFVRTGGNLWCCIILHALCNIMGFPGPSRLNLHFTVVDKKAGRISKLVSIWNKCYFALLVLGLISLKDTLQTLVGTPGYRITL
# UUG fidelity: modulators of yeast start codon fidelity, primary screen, whole organism, S. cerevisiae, single point, plate reader. S. cerevisiae UUG-firefly luciferase reporter, luminescence/redox ratio. activity score, % at 18.7 µM. 0.13% of 350,000 active. AID 602363, 2012;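 active means replicate mean at a twofold rise or more, about +100% in these data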;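 further: firefly luciferase made from a UUG start codon reports start codon fidelity; reporter light over untreated wells divided by growth signal over untreated wells; some hits fall short of that in this replicate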
# eIF4H inh: human eIF4H binding inhibitors, primary screen, translation initiation inhibitor project, biochemical, uHTS, fluorescence polarization. Eukaryotic translation initiation factor 4H (Homo sapiens), Q15056. eIF4H fluorescence polarization binding assay. inhibition, % at 35 µM. 0.94% of 290,000 active. AID 2012, 2009;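 active means 50% or more with normal probe brightness, or confirmed in later tests; inconclusive means above 50% with abnormal brightness, or retests that disagree; inactive means below 50% or failed in later tests; about a fifth of its hits are not listed in these tables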;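 further: calls also rest on retests at 20 µM and on dose response follow-up; 0% = protein and probe with vehicle and 100% = probe without protein; strong numbers were not always called active; many hits fall short of the cut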
# eIF4H inh retest: further read-out of eIF4H inh, marked with its call; inhibition, %; compound at 20 µM; confirmation average;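 mean of two retest wells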
# PABP FP inh retest: second read-out of PABP FP inh, no call of its own (marks repeat the call); inhibition, %; compound at 20 µM; confirmation repeats;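 mean of two retest wells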
# MT1-MMP act inh RFP: also measured in MT1-MMP act inh; calls as there; RFP signal change, %; measured here: RFP expression control read;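 0 = vehicle wells; hits needed this value within 50% of zero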
# Active calls of the source: *; i = inactive; ? = inconclusive; . = not tested or not shown; & = joins results of further samples. Only part of the results is shown (hit frequency here may not be typical).
SMILES,PABP FP inh,MT1-MMP act inh,MT1-MMP act inh RFP,CSC inhib,HIV Env fusion,Rce1 inhib,UUG fidelity,eIF4H inh,others
N#Cc1ccc(Oc2ccc(-c3cnc4ccccc4n3)cc2)cc1C#N,-4,0,-17,-5,9,i,-19,-9,
CCOC(=O)C1CCCN(c2c(NCCc3ccc(S(N)(=O)=O)cc3)c(=O)c2=O)C1 (centres undefined),10,-1,2,-3,42,i,-7,-2,
CCSc1nc(C)c(CCOc2cccc(C)c2)c(=O)[nH]1,-9,3,1,15,-7,i,-1,-4,
Clc1ccc(CNCC2CCCO2)cc1 (centres undefined),9,-3,2,-5,3,i,-4,2,
COC(=O)C1=C(C)N(Cc2ccccc2)C(=NCc2cc(OC)c(OC)c(OC)c2)N[C@H]1c1ccccc1,30,.,.,2,.,i,-25,-1,
CN(C)C(=O)c1cc([N+](=O)[O-])ccc1O,11,-1,4,-5,3,i,.,-4,
O=C(Nc1c2c(nn1-c1ccc(F)cc1)CS(=O)C2)c1ccc(Br)o1 (centres undefined),1,3,6,12,-13,i,-5,16,
CC(C)CN1CCN(Cc2cccn2-c2ccc(Cl)cn2)CC1CCO (centres undefined),12,-10,2,.,-5,i,.,71,eIF4H inh retest=47;PABP FP inh retest=5
CS(=O)(=O)Nc1ccccc1C(=O)NCCSCc1ccccc1,-13,-1,4,7,17,i,.,6,
CCCNC(=O)C1(C)CCCN(CC(=O)c2ccc3c(c2)OCCO3)C1 (centres undefined),.,3,2,.,32,.,-17,.,

# Some of these compounds in order of count of non-hydrogen atoms, rising:
SMILES,PABP FP inh,MT1-MMP act inh,MT1-MMP act inh RFP,CSC inhib,HIV Env fusion,Rce1 inhib,UUG fidelity,eIF4H inh,others
Clc1ccc(CNCC2CCCO2)cc1 (centres undefined),9,-3,2,-5,3,i,-4,2,
CCSc1nc(C)c(CCOc2cccc(C)c2)c(=O)[nH]1,-9,3,1,15,-7,i,-1,-4,
O=C(Nc1c2c(nn1-c1ccc(F)cc1)CS(=O)C2)c1ccc(Br)o1 (centres undefined),1,3,6,12,-13,i,-5,16,
CCCNC(=O)C1(C)CCCN(CC(=O)c2ccc3c(c2)OCCO3)C1 (centres undefined),.,3,2,.,32,.,-17,.,

# The list goes on.
SMILES,PABP FP inh,MT1-MMP act inh,MT1-MMP act inh RFP,CSC inhib,HIV Env fusion,Rce1 inhib,UUG fidelity,eIF4H inh,others
O=C(COc1ccc(Br)cc1CNC1CCCC1)Nc1ccccc1,1,-1,-1,-4,-92,i,-9,-9,
COc1cc2c(C)nc3c(cnn3-c3ccccc3)c2cc1OC,-2,-2,-1,12,-84,i,.,4,
Cc1cccc(-n2c(C)c(C)c3c(N)ncnc32)c1,7,-3,-1,16,-4,i,-21,-7,
COc1ccc(O)c(/C=N/N=C2/C(=O)Nc3ccccc32)c1,-2,-1,2,-12,-8,i,-8,1,
CC(C)CCNC(=O)[C@H](CC(C)C)NC(=O)[C@H]1O[C@@H]1C(=O)O,2,.,.,1,.,i,1,-9,
CCCCCCOc1ccc(N2C(=O)CC(N3CCN(CCN=CC4=C(O)CC(C)(C)CC4=O)CC3)C2=O)cc1 (centres undefined),7,2,-3,20,2,i,.,2,
C=CCn1c(SCC(=O)Nc2ccc(C(=O)OC(C)C)cc2)nnc1-c1cccs1,-12,-5,2,-10,.,i,-13,2,
CN(C)NC(=O)C12CCC(C)(C(=O)O1)C2(C)C (centres undefined),-3,3,7,-5,4,i,.,1,
CCOC(=O)c1[nH]c2ccccc2c1NC(=O)c1nonc1C,-3,2,5,-7,-1,i,-2,-2,
OCCN1CCN(CCSc2ccccc2)CC1,-4,-4,1,24,?,.,-10,-4,
Cc1ccc(S(=O)(=O)NCCSc2nnnn2-c2ccc(C(N)=O)cc2)cc1,-19,-4,-2,-12,-13,i,13,-9,
COc1ccc(CCNC(=S)Nc2ccccc2C)cc1,1,-1,1,2,.,i,-13,-4,
Cc1cc(NC(=O)c2ccc(N3C(=O)CCC3=O)cc2)no1,-9,-4,1,16,-152,i,-13,-1,
OC(COc1ccc(CNCc2cccnc2)cc1)CN1CCc2ccccc2C1 (centres undefined),9,2,5,-17,5,i,.,-5,
O=C(COc1ccccc1)NC(=S)Nc1ccc(Br)cn1,-2,3,5,-4,-6,i,-9,-3,
CC(C)(CSc1nncn1/N=C/c1ccco1)NS(=O)(=O)c1ccc(Cl)cc1,-6,0,0,1,.,i,-8,-4,
COc1ncccc1C(=O)NC1CCCc2c1cnn2-c1ccc(C)c(C)c1 (centres undefined),-7,2,-11,-17,12,i,-2,-11,
CCOC(=O)N1CCN(CC(=O)Nc2cc(C)nn2-c2nc3ccccc3s2)CC1,-9,-11,-11,28,.,i,4,-16,
COCCSc1ccccc1C(=O)Nc1ccc(Cl)cn1,1,-2,0,2,30,i,-33,-10,
COc1ccc(NC(=O)Cc2coc3cc(C)ccc23)cc1S(=O)(=O)N1CCOCC1,29,2,-3,2,13,i,5,6,
Nc1ccc2c(c1)C(=O)N(CCCCCC(=O)O)C2,-15,-9,3,-12,.,i,-13,10,
C/C(Cl)=C/Cn1c(SCc2ccc(Cl)cc2)nc2c1c(=O)[nH]c(=O)n2C,8,-4,0,.,.,i,-8,-6,
COc1ccc(NC(=O)N(C)C[C@H]2OCc3cnnn3CCCC(=O)N([C@H](C)CO)C[C@@H]2C)cc1,.,5,7,.,0,.,-4&-2&-13,.,
Cc1ccc(Oc2ncccc2NC(=O)CC(CC(=O)O)c2ccccc2)c2c1CCC2 (centres undefined),-7,0,1,0,-1,i,.,0,
O=C(COC(=O)c1cn(-c2ccccc2)nc1-c1ccccc1)c1ccc([N+](=O)[O-])cc1,2,.,.,2,.,i,.,-6,
COc1cccc(CCNC(=O)C2CCC(=O)N(Cc3cccc(OC)c3)C2)c1 (centres undefined),-2,3,5,-2,-2,i,-2,1,
Cc1cc2oc(=O)cc(CN3CCN(S(=O)(=O)c4ccc5c(c4)OCCO5)CC3)c2cc1C,-11,-2,-9,-10,35,i,-16,-6,
Cc1cc(=O)oc2cc(NC(=O)CCCC(=O)O)ccc12,6,3,2,1,.,i,.,4,
CS(=O)(=O)N1CCN(c2ccccc2NC(=S)NC(=O)c2cccs2)CC1,-8,-9,-11,11,-22,i,.,-1,
CCN1CCN(c2ccc(NC(=O)c3cc(S(=O)(=O)N4CCCC4)ccc3Cl)cc2)CC1,.,1,1,.,3,.,-10,.,
CC(C)(C)c1ccccc1OCCOCCNCc1ccccc1,12,-5,-3,.,49,i,16,11,
COc1ccccc1C(=O)Nc1ccnn1C1CCN(CC2CC=CCC2)CC1 (centres undefined),5,0,4,11,3,i,-8,-2,
O=S(=O)(Nc1cccc(-c2ccc3nncn3n2)c1)c1ccc(Cl)s1,-6,-1,3,.,14,i,.,16,
C=CCn1c(COc2cccc(C)c2C)nnc1SCC(=O)N1CCN(c2ccccc2)CC1,1,-4,-12,33,64*,i,.,-14,
COc1ccc(N2CCN(Cc3nc(-c4ccc(Cl)cc4Cl)no3)CC2)cc1,-2,0,-3,-4,.,i,.,3,
CC(C(=O)Nc1ccc(F)c(F)c1F)N(C)CC(=O)Nc1ccccc1Br (centres undefined),-1,2,0,-5,8,i,-14,-3,
O=C(CP(=O)(c1ccccc1)c1ccccc1)Nc1nc2ccc(Cl)cc2s1,0,1,1,-10,-4,i,.,-2,
CCCC(=O)NC(=S)Nc1ccccc1N1CCOCC1,-5,2,1,-8,-4,i,.,-12,
CNC(=O)C[C@H]1C(=O)N(Cc2ccccc2)C[C@@H]1CSC,.,0,3,.,-22,.,-13,.,
CCOC(=O)C1CCN(C(=O)c2ccc3c(=O)n4c(nc3c2)CCCCC4)CC1,.,3,0,1,2,i,.,.,
COc1ccc(CC2(CO)CCN(Cc3ccncc3)CC2)cc1,-1,-3,0,24,2,i,.,2,
O=C(Cc1ccccc1F)NNC(=O)c1cccs1,.,2,3,-14,-7,.,-12,.,
CSc1ccc(CN2CCN(CC=C(C)C)C(CCO)C2)cc1 (centres undefined),4,1,4,26,6,i,.,-1,
Cc1ccc(C)c(N(CC(=O)NC2CCCC2)C(=O)CCC(=O)Nc2nccs2)c1,4,-1,0,-8,-2,.,-17,-6,
COc1ccccc1-c1ocnc1C(=O)Nc1ccc(N2CCOCC2)cc1N1CCOCC1,2,2,5,.,-3,i,-21,-9,
CCN(CCCNC(=O)CCn1c(=O)[nH]c2ccccc2c1=O)c1ccccc1,7,-3,-5,-14,-40,i,9,4,
COc1cccc(C(=O)N(C)CC(=O)Nc2cccc3ccccc23)c1,.,4,-1,.,1,.,0,.,
CC1(C(=O)Nc2ccc3c(c2)OCO3)CCN1C(=O)C1CCCCC1 (centres undefined),.,-1,-1,.,0,.,8,.,
C=CCn1c(=O)/c(=C/c2ccc(F)cc2)s/c1=C(\C#N)c1nnc2n1CCCCC2,-7,2,-2,5,1,i,-8,-9,
Cc1occc1C(=O)NNS(=O)(=O)c1ccc(Cl)cc1,6,-2,2,-10,3,i,-14,-4,

# The results go on:
SMILES,PABP FP inh,MT1-MMP act inh,MT1-MMP act inh RFP,CSC inhib,HIV Env fusion,Rce1 inhib,UUG fidelity,eIF4H inh,others
COc1ccc(S(=O)(=O)N2CCOCC2)cc1NC(=O)c1ccc(OC(F)F)cc1,.,6,-3,.,-5,.,-9,.,
CCC(NC(=O)c1cc(COc2ccc(C)nc2)on1)c1ccc(C)cc1 (centres undefined),-5,8,-15,16,14,i,-5,25,
O=C(NC1CCCCC1)C1CCN(c2nnnn2-c2ccccc2)CC1,6,6,3,.,-33,i,-3,-1,
Cc1sc(NC(=O)c2ccc3ncsc3c2)c(C(N)=O)c1C,.,3,2,-2,.,i,-8,.,
CCOc1ccc2cc(C3CC(c4ccco4)=NN3S(C)(=O)=O)c(=O)[nH]c2c1 (centres undefined),1,2,10,5,16,i,-18,8,
COC(=O)/C(C#N)=C(/Nc1ccc(F)c(Cl)c1)C(F)(F)F,-2,4,5,-4,5,i,-12,-3,
CC(C)c1c(C(=O)N/N=C/c2cccnc2)nnn1-c1nonc1N,-5,-2,-1,-2,7,i,-13,-2,
COc1ccc(C(=O)Nc2nc(C)c3cc4c(cc3n2)OCO4)cc1,-5,-1,-1,-6,-2,i,-17,-6,
Cc1cccc(C)c1NC(=O)C(c1cccc([N+](=O)[O-])c1)N(C)C(=O)c1ccccn1 (centres undefined),-4,-2,-3,-14,-4,i,-6,-10,
COC(=O)c1cn(NC(=O)c2ccncc2)c(=O)c2ccccc12,-7,3,6,-16,-41,i,4,0,
COc1ccc(/C(O)=C/c2nc3ccc(C(=O)NCCc4cccc(C)c4)cc3[nH]c2=O)cc1OC,-16,-22,4,-10,.,i,.,1,
COC(=O)c1cc(C)sc1NC(=S)N1CCN(CCc2ccccc2)CC1,-1,2,1,12,-8,i,-2,6,
OCC[C@H]1C[C@H](O)[C@@H](O)[C@@]2(OCc3ccccc32)O1,.,-1,0,-2,1,.,-15,.,
COc1ccc(NC(=O)COC(=O)CCSc2ccccc2)cc1OC,.,0,4,12,.,.,15,.,
Clc1cccc(Nc2c3c(nc4ncnn24)CCC3)c1,-12,4,5,-13,-11,i,-13,5,
CSc1ccc(-c2cc3c(c4c2ccn4C)C2CCC3O2)cc1 (centres undefined),.,-1,-4,.,9,.,-10,.,
